Bioassay records: PubChem BioAssay, PCMD
Biofilm kill mix: mixture kills Candida albicans biofilm cells. C. albicans biofilm persisters + clotrimazole, fluorescence viability; primary screen in compound mixtures of four per well. actives 0.02% (n = 120,000). inhibition, % at 7.6 µM;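 active = inhibition above 30.3% in the primary screen of four-compound pools, then above 30% when the compound was retested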;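 also: compounds exposed to preformed 24 h biofilms for 48 h; the number belongs to the whole pool; some results filed as inactive read as strong as hits; inactives centre near 12; 0% = biofilm with clotrimazole alone and 100% = kill control; retested singly at about 60 µM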
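Assay system: C. albicans biofilms / Medium: RPMI/MOPS medium, pH 7.0 / Schedule: biofilm formation 24 h, compound exposure 48 h, 37 °C / Measured by: Alamar Blue fluorescence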
* marks the source's active call; other numbers are inactive results.

no.	canonical_smiles	Biofilm kill mix
1	CCCN1C(=S)SC(C)(C)C1/[N+]([O-])=C/c1ccc(S(=O)(=O)NC)cc1 (stereo unspecified)	17
2	COC(=O)c1ccc(COC(=O)C(CCS(C)(=O)=O)N2C(=O)c3ccccc3C2=O)cc1 (stereo unspecified)	14
3	Cc1nc2cc(N)ccc2n1C1CCCCC1	0
4	COc1ccc2nccnc2c1[N+](=O)[O-]	3
5	COc1ccc(OCC(=O)Nc2ccc3nc(C)sc3c2)cc1	10
6	Cn1c(=O)c2c(nc(Cc3ccccc3)n2C)n(C)c1=O	15
7	CC12CCC(C(=O)NNc3ccccc3)(C(=O)C1=O)C2(C)C (stereo unspecified)	19
8	CCOc1ccc(-n2c(SCC(=O)Nc3ccc(CC)cc3)nc3n[nH]c(C)c3c2=N)cc1	13
9	NC(=O)c1nn(-c2ccccc2)nc1NC(=O)Cn1nnc(-c2ccccc2)n1	18
10	O=C(O)CSc1ncccc1C(=O)O	13
11	O=C(NNS(=O)(=O)c1ccccc1)C(O)(c1ccccc1)c1ccccc1	11
12	Cc1cc(Cl)nc(Cl)c1C(=O)NC(=O)NCCC(C)C	12
13	Cc1ccccc1N(CC(=O)NC1CCCC1)C(=O)C1(C)CC(=O)N=C2C=CC=CN21 (stereo unspecified)	-2
14	S=C(NCc1ccncc1)Nc1ccc(Cl)c(Cl)c1	22
15	O=C(O)CC(C(=O)Nc1ccc(F)cc1)C1CCCO1 (stereo unspecified)	30
16	Cc1ccccc1C(=O)NCC(=O)O	23
17	Cc1cc(=O)[nH]c(N/N=C/c2cc(C)n(CC(F)(F)F)c2C)n1	3
18	Cc1ccc(C)c(S(=O)(=O)N2CCNCC2)c1	21
19	Cn1c(CSCc2ccccc2Cl)n[nH]c1=S	24
20	COc1cc2ncnc(NCc3ccc(Cl)cc3)c2cc1OC	17
21	CC(NC(=O)c1ccccc1F)c1nnc(SCc2nc3ccccc3c(=O)[nH]2)n1C (stereo unspecified)	21
22	COc1ccc(/C=N/NC(=O)c2cccc([N+](=O)[O-])c2)cc1O	-10
23	COc1ccc(C(=O)NCc2nnc(SCC(=O)N3CCCc4ccccc43)o2)cc1OC	7
24	NC(=O)CCC(NC(=O)c1ccc(Cl)cc1)C(=O)O (stereo unspecified)	11
25	NS(=O)(=O)c1ccc(CNS(=O)(=O)c2cc(Cl)ccc2Cl)cc1	5
26	O=C(N=Nc1c(O)[nH]c2ccc(Br)cc12)c1cc(-c2cccs2)nc2ccccc12	12
27	CNC(=S)NC1CC2CCCC(C1)N2Cc1ccc(C)cc1 (stereo unspecified)	5
28	C/C(=N\NC(=O)CNc1cccc(C(F)(F)F)c1)c1cccc(Br)c1	10
29	O=C(Nc1ccc([N+](=O)[O-])cn1)c1ccc2c(c1)OCO2	10
30	CCOc1ccc(C(=O)N/N=C/c2cc(Cl)ccc2[N+](=O)[O-])cc1	10
31	COCC1CCN(Cc2nc(COc3ccccc3)no2)C1 (stereo unspecified)	15
32	Cc1ccccc1N/C(=N/S(=O)(=O)c1ccccc1)c1ccc(F)cc1	21
33	COc1ccc(/C=N/NC(=O)COc2ccc3ccccc3c2)c(C(=O)O)c1OC	14
34	O=C(COC(=O)c1cccnc1Cl)Nc1nc(-c2ccccc2)cs1	23
35	CCN(CC(=O)NC(C)C)C(=O)[C@@H](NC(=O)c1ccco1)C(C)C	9
36	O=C(COC(=O)c1ccc(-c2ccc([N+](=O)[O-])cc2)o1)NC(=O)NC12CC3CC(CC(C3)C1)C2	11
37	Cc1ccc(/C=C/C(=O)Nc2ccncc2)o1	10
38	COc1ccccc1C(=O)OCCCN=C1NS(=O)(=O)c2ccccc21	14
39	Cc1cc(C)cc(NC(=O)CSc2cc(C(=O)c3nccn3C)c3ccccc3n2)c1	17
40	O=C(CSc1ccc(-c2ccncc2)nn1)N1CCN(c2ccccc2)CC1	12
41	CCOc1ccc(NC(=O)C(Cc2ccccc2)NC(=O)C2CCCCC2)cc1 (stereo unspecified)	11
42	COc1ccccc1CNC(=O)CCCc1ccccc1	12
43	CC1=C(C(=O)Nc2ccccc2)C(c2cccs2)NC(=O)N1 (stereo unspecified)	18
44	CN(C)S(=O)(=O)c1ccc(Cl)c(NC(=O)COC(=O)CNC(=O)c2ccco2)c1	16
45	CCCCOC(=O)c1ccc(S(N)(=O)=O)o1	11
46	COc1ccc([N+](=O)[O-])cc1NC(=O)Cc1c(Cl)cccc1Cl	11
47	O=C(c1ccc(Cn2c(=S)[nH]c3ccccc3c2=O)cc1)N1CCN(c2ccccn2)CC1	6
48	O=C(C[n+]1cc(-c2ccc(Cl)cc2)n2c1CCCCC2)c1ccccc1	27
49	CC(=O)Nc1cccc(NC(=S)Nc2ccc(F)c(Cl)c2)c1	7
50	Cc1ccc(OS(=O)(=O)c2cn(C)c(=O)n(C)c2=O)cc1C	14
51	CCSc1nnc(NC(=O)c2ccccc2)s1	17
52	O=C(Cc1coc2cc3c(cc12)CCC3)NC1CCCCCCC1	8
53	Cc1cc(C(=O)N/N=C/c2ccc[nH]2)n[nH]1	8
54	Cc1cccc(/C=C/C(=O)c2ccc(N3CCOCC3)cc2)c1	17
55	O=C(N/N=C/c1cc(Br)c(Br)o1)c1cccnc1	19
56	Cc1ccc(N2CN(Cc3ccco3)CNC2=S)c(C)c1	12
57	COc1ccc(-c2ccc(SCC(=O)c3cccs3)nn2)cc1OC	11
58	COc1ccc(/C=c2\s/c(=C/C(=O)c3ccc(C)cc3)[nH]c2=O)c(OC)c1	16
59	CCC(C)(C)c1nnc(NC(=O)c2cccc([N+](=O)[O-])c2)s1	7
60	COc1ccc(NC(=O)C2CCC(CNc3c(N4CCOCC4)c(=O)c3=O)CC2)cc1Cl (stereo unspecified)	24

The list goes on.
no.	canonical_smiles	Biofilm kill mix
61	CC(=C/c1ccccc1)/C=N/n1c(-c2ccncc2)n[nH]c1=S	10
62	C=CCNC(=O)COc1c(C)ccc(C)c1C	-11
63	Cc1c(Cl)cccc1NC(=O)NCc1ccc(F)cc1	0
64	COC(=O)N/N=C/c1cc(N=Nc2ccccc2Cl)ccc1O	31
65	CCOc1ccc(/C=C(\C#N)C(=O)NCC2CCCO2)cc1OCC (stereo unspecified)	3
66	Cn1nnc(NC(=O)c2cccs2)n1	34
67	CCOC(=O)c1c(C)nn(-c2ccc(NC(=O)CSCC(=O)O)cc2)c1C	22
68	CC(=O)c1ccc(NC(=O)CCc2c(C)nc3ncnn3c2C)cc1	13
69	CC(C)[C@H](Nc1ccc(C(F)(F)F)cc1[N+](=O)[O-])C(=O)O	19
70	O=C(Nc1ccc(F)c(F)c1)c1ccco1	4
71	Cc1noc(NS(=O)(=O)c2ccc(NC(=O)c3cc(-c4ccccc4Cl)nc4ccccc34)cc2)c1C	16
72	NCCNc1ccc2nnnn2n1	10
73	O=C(c1cc[n+]([O-])cc1)N1CCc2c([nH]c3ccccc23)C1c1ccccc1Cl (stereo unspecified)	3
74	CC(C)=CC(=O)OCC(=O)Nc1ccc(Cl)cc1	6
75	C[C@H](NC(=O)c1nc[nH]c1C(=O)N[C@@H](Cc1ccccc1)C(=O)OC(C)(C)C)c1ccccc1	13
76	Cc1cccc(OCC(=O)NC(=S)Nc2ccccc2N2CCOCC2)c1	9
77	CC(NC(=O)c1ccc(Br)cc1Br)c1ccccc1 (stereo unspecified)	21
78	CC(C)N1C(=O)c2ccccc2N(Cc2ccccc2)S1(=O)=O	12
79	CCN(CC)C(=O)c1[nH]cnc1C(=O)N[C@@H](Cc1ccccc1)C(=O)OCc1ccccc1	16
80	Cn1cc(S(=O)(=O)N2CCN(c3cccc(Cl)c3)CC2)c(=O)n(C)c1=O	23
81	CCn1nc(C)c(NC(=O)c2ccc(Br)o2)c1C	14
82	C/C(=N\Nc1ncc(Cl)cc1Cl)c1ccc(N2CCOCC2)cc1	-2
83	O=C(CC(Nc1ccc(F)cc1)c1ccccc1)c1ccccc1 (stereo unspecified)	13
84	CCSc1nc(-c2ccccc2)c(-c2ccccc2)n1CC(O)CO (stereo unspecified)	17
85	COc1ccc(CCNC(=O)CSc2ccccn2)cc1	1
86	O=C(NCCC1=CCCCC1)c1cc(-c2ccncc2)nc2ccccc12	-3
87	CC1CCCC(NCC(O)COC(c2ccc(F)cc2)c2ccc(F)cc2)C1C (stereo unspecified)	8
88	CCOC(=O)CNc1nc(Cl)c(C#N)s1	-12
89	CC(C)Nc1nc(NC(C)C)nc(SCCOC(=O)Nc2ccc(Cl)cc2Cl)n1	18
90	CSc1nc(C)c(C(=O)C[n+]2ccc(C)cc2)cc1C#N	-4
91	S=C(NCC1CCCO1)NC12CC3CC(CC(C3)C1)C2 (stereo unspecified)	18
92	Cc1ccc(OCC(=O)NNC(=O)c2cccnc2)cc1C	21
93	Cc1c(/C(O)=C2/C(=O)C(=O)N(Cc3cccnc3)C2c2ccccn2)cnn1-c1ccccc1 (stereo unspecified)	13
94	CCOC(=O)c1nnn(CC(=O)Nc2ccccc2)c1C(=O)OCC	7
95	COc1ccc(CCNC(=O)CCC(=O)Nc2nnc(C(C)C)s2)cc1OC	11
96	CC(C)c1ccc(N2C(=O)CC(NNC(=O)c3ccccc3Cl)C2=O)cc1 (stereo unspecified)	31
97	COc1ccc(-c2c(C#N)c(SCC(N)=O)nc3c2CCCC3)cc1	19
98	CC(=O)c1cccc(NC(=O)C(OC(=O)c2cccc(S(=O)(=O)N(C)c3ccccc3)c2)c2ccccc2)c1 (stereo unspecified)	11
99	Cc1nc(CSc2nnc(C)s2)cs1	13
100	COc1ccc(NC(=O)Cn2nc(Cc3cccnc3)c3ccccc3c2=O)c(OC)c1	12
101	NC1=NC[C@H](Cc2ccccc2)N1CCc1cccc(F)c1	7
102	COc1cc(CN(C(=S)NCC(=O)NC2CCCC2)C2CCCC2)cc(OC)c1OC	13
103	O=C(/C=C/c1ccco1)Nc1ccc2c(c1)OCO2	12
104	Cc1ccc(CNC(=O)CCn2c(=O)oc3ccccc32)cc1	20
105	COC(=O)C(NC(C)=O)(Nc1cccc(C)n1)C(F)(F)F (stereo unspecified)	12
106	OC(COc1ccc(CNCCc2ccccc2F)cc1)CN1CCCCC1 (stereo unspecified)	17
107	CCN(CC)c1ccc2c(Nc3ccccc3)c(C=O)c(=O)oc2c1	-7
108	Cc1nn(CCC(=O)NNC(=S)Nc2ccc(Cl)cc2)c(C)c1[N+](=O)[O-]	15
109	COc1ccc(-c2c[nH]c(=O)[nH]c2=O)cc1OC	24
110	CN1CCN(c2cnn(-c3ccccc3)c(=O)c2Br)CC1	0
111	COc1cc(C(=O)NCc2nnc(SCC(=O)Nc3ccc4c(c3)OCO4)o2)cc(OC)c1OC	13
112	COCc1cc(SC2CCCCC2)nc(C)n1	14
113	Cc1cc(C)c2cc(C(=O)N3CCc4ccccc4C3)[nH]c2c1	0
114	COc1ccccc1/C=C/C1(C(=O)NC2CCCC2)CC(=O)N1c1ccc(C)cc1 (stereo unspecified)	16
115	CN1/C(=C\C(=S)NC(=O)c2ccccc2Cl)C(C)(C)c2ccccc21	-4
116	OCCC1CN(Cc2cccc3c2OCO3)CCN1C1CCCCC1 (stereo unspecified)	21
117	C/C(=N\NC(=O)NC1CCCCC1)C1CCCCC1	6
118	Cc1ccc(/C=N/Nc2nncc(-c3ccccc3)n2)o1	11
119	Cc1ccc(-c2cc3nc(C)cc(C)n3n2)cc1	14
120	S=C(NCc1ccc2c(c1)OCO2)Nc1ccc2nsnc2c1	5

Next structures follow.
no.	canonical_smiles	Biofilm kill mix
121	O=C(CSc1ccc(Cl)cc1)Nc1cc(-c2nc3ncccc3o2)ccc1Cl	14
122	CCOC(=O)c1nn(-c2ccccc2)c2nnc(Cc3ccc(Cl)cc3)c(=O)n12	8
123	CCN=C1S/C(=C\c2cn(C(C)=O)nc2-c2ccccc2)C(=O)N1CC	10
124	CCS(=O)(=O)c1ccc(C(=O)Nc2ccccc2OC)c(Cl)c1Cl	17
125	COc1ccc(/C=C(/C(=O)NCc2ccccc2)c2ccccc2)cc1	7
126	CC1CN(S(=O)(=O)c2ccc(C(=O)Nc3ccc(S(=O)(=O)Nc4nccs4)cc3)cc2)CC(C)O1 (stereo unspecified)	14
127	CN(C)CCCNC(=O)COc1ccc(Br)cc1Cl	6
128	CCOC(=O)C(=O)Nc1sc(C(=O)N2CCOCC2)c(C)c1C#N	21
129	Cc1cc(/C=N/Nc2nc(N)ncc2[N+](=O)[O-])c(C)n1-c1ccccc1F	10
130	Cc1nnc(Nc2ccc(Cl)c(C(F)(F)F)c2)[nH]c1=O	-4
131	O=C(c1ccc2c3c(cccc13)CC2)C1CCCN(C(=O)c2cccnc2)C1 (stereo unspecified)	-6
132	CCc1ccc(CNC(=O)Cn2nc(-c3ccc(C)cc3)ccc2=O)cc1	35

Part of the list above, as labelled records.
#99 Cc1nc(CSc2nnc(C)s2)cs1
- Biofilm kill mix = 13

#100 COc1ccc(NC(=O)Cn2nc(Cc3cccnc3)c3ccccc3c2=O)c(OC)c1
- Biofilm kill mix = 12

#101 NC1=NC[C@H](Cc2ccccc2)N1CCc1cccc(F)c1
- Biofilm kill mix = 7

#102 COc1cc(CN(C(=S)NCC(=O)NC2CCCC2)C2CCCC2)cc(OC)c1OC
- Biofilm kill mix = 13

An excerpt of these results, field by field:
130	Cc1nnc(Nc2ccc(Cl)c(C(F)(F)F)c2)[nH]c1=O
  Biofilm kill mix: -4
132	CCc1ccc(CNC(=O)Cn2nc(-c3ccc(C)cc3)ccc2=O)cc1
  Biofilm kill mix: 35
126	CC1CN(S(=O)(=O)c2ccc(C(=O)Nc3ccc(S(=O)(=O)Nc4nccs4)cc3)cc2)CC(C)O1 (stereo unspecified)
  Biofilm kill mix: 14
124	CCS(=O)(=O)c1ccc(C(=O)Nc2ccccc2OC)c(Cl)c1Cl
  Biofilm kill mix: 17

Only part of the results is shown; the hit share may differ from the screen's.
